Source: PubChem BioAssay (Fisher Drug Discovery Resource Center)
NPYLR7 ag: mosquito NPYLR7 agonism; AID 1259423; activation, % at 10 µM; HEK293T NPYLR7/Galpha15, GCaMP6s calcium fluorescence; 270,000 compounds, 0.15% hits; in the data active = activation above about 40%;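 note: 0% = vehicle and 100% = reference agonist at the receptor; some compounds past the cut are filed as inactive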
NPYLR7 ag max-min: also measured in NPYLR7 ag; calls as there; activation, %; measured here: Max-Min RFU normalised activation; some inactives read as strong as hits;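 span of the calcium signal over five minutes; 0% = vehicle and 100% = native peptide agonist; compound fluorescence can raise it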
Starred values were filed as active, the others as inactive. The list is partial. The share of hits here may be higher or lower than overall.

O=[N+]([O-])c1ccccc1C1c2cccn2CCCN1Cc1cccc(C(F)(F)F)c1 (stereo not given) was read as NPYLR7 ag 4 and NPYLR7 ag max-min 19.
Screening COc1ccc(NC(=O)CN2C(=O)c3ccc([N+](=O)[O-])cc3C2=O)cc1Cl returned NPYLR7 ag -5 and NPYLR7 ag max-min -13.
Screening CC(C)(O)c1cn(C2CCN(C(=O)c3ccc(N4CCCCC4)cc3)CC2)nn1 returned NPYLR7 ag 10 and NPYLR7 ag max-min -1.
Nc1c(C(=O)Nc2ccccc2)c2ccccn2c1C(=O)c1ccc2c(c1)CCCC2 was read as NPYLR7 ag -4 and NPYLR7 ag max-min -9.
Screening CC(NC(=O)Cn1cnc(C#N)n1)c1ccc2c(c1)CCCC2 (stereo not given) returned NPYLR7 ag 7 and NPYLR7 ag max-min 7.
Nc1ncnc2c1ncn2[C@@H]1O[C@H](COP(=O)(O)CP(=O)(O)OP(=O)(O)O)[C@H](O)C1O (stereo not given in full) was read as NPYLR7 ag 3 and NPYLR7 ag max-min -46.
Screening Cc1ccn2c(=O)c(NC(=O)C(F)(F)F)c(C)nc2c1 returned NPYLR7 ag 4 and NPYLR7 ag max-min 3.
For CCn1cc(C(CC(=O)N2CCN(c3cccc(Cl)c3)CC2)c2ccc3c(c2)OCO3)c2ccccc21 (stereo not given) the results were NPYLR7 ag 10 and NPYLR7 ag max-min 18.
CCOC(=O)Cn1c(=O)c2c(nc3n(-c4ccc(OCC)cc4)c(C)cn23)n(C)c1=O was read as NPYLR7 ag 2 and NPYLR7 ag max-min 13.
Screening CC(=O)N1CCCCC1C1=CCCN(CCCc2ccccc2)C1 (stereo not given) returned NPYLR7 ag 6 and NPYLR7 ag max-min 5.
`CC(C)(C)OC(=O)NC1CCCC1C(=O)NCc1cccs1` (stereo not given) gave NPYLR7 ag 4 and NPYLR7 ag max-min 1.
`CC1(C(=O)NS(=O)(=O)c2cccc(F)c2)CCN1C(=O)C1CCCCC1` (stereo not given) gave NPYLR7 ag 16 and NPYLR7 ag max-min 17.
For CCOC(=O)c1cnc2ccc(C(=O)OC)cc2c1Nc1cccc(C(F)(F)F)c1 the results were NPYLR7 ag 0 and NPYLR7 ag max-min -9.
C=CCSc1nnc(NC(=O)Cc2cccs2)s1 was read as NPYLR7 ag 30 and NPYLR7 ag max-min 34.
For Cc1ccc(S(=O)(=O)c2nc(-c3ccccc3C)oc2N2CCC(C(N)=O)CC2)cc1 the results were NPYLR7 ag -6 and NPYLR7 ag max-min -5.
For COc1cc2ccccc2cc1C(=O)N(CCN(C)C)c1nc2ccc(C)cc2s1 the results were NPYLR7 ag -5 and NPYLR7 ag max-min -12.
O=C(Nc1nnc(-c2ccccc2)s1)c1cccc(C(F)(F)F)c1 was read as NPYLR7 ag -2 and NPYLR7 ag max-min -4.
Screening O=C(O)CONS(=O)(=O)c1ccc(F)cc1 returned NPYLR7 ag 5 and NPYLR7 ag max-min 3.
`CCn1ncc(NC(=O)c2cccc(CN3CCCCC3CCO)c2)n1` (stereo not given) gave NPYLR7 ag -3 and NPYLR7 ag max-min -6.
For COc1ccccc1C(C)Nc1ccc(S(=O)(=O)N2CCCCC2)cn1 (stereo not given) the results were NPYLR7 ag 8 and NPYLR7 ag max-min 6.
`COCc1nc(C)cc(Sc2n[nH]c(-c3cccs3)n2)n1` gave NPYLR7 ag 0 and NPYLR7 ag max-min 0.
For CCn1c(C2CCN(C(=O)c3scc4c3OCCO4)CC2)n[nH]c1=O the results were NPYLR7 ag 1 and NPYLR7 ag max-min -4.
Screening CC(=O)N1N=C(CC#N)OC1(C)CC(=O)Nc1ccccc1 (stereo not given) returned NPYLR7 ag 3 and NPYLR7 ag max-min 9.
`COc1ccc(C(=O)Nc2ccc(-c3nc4ccccc4o3)c(O)c2)cc1[N+](=O)[O-]` gave NPYLR7 ag -12 and NPYLR7 ag max-min -21.
Screening CN(Cc1nc(-c2ccc3c(c2)OCO3)no1)CC1COCCO1 (stereo not given) returned NPYLR7 ag 8 and NPYLR7 ag max-min -5.
For Cc1ccc(-n2c(CNC(=O)c3ccc([N+](=O)[O-])cc3)nnc2SCc2ccc(F)cc2)cc1 the results were NPYLR7 ag -10 and NPYLR7 ag max-min -2.
Cc1ccc(C=C2N=C(c3ccc4c(c3)OCO4)OC2=O)o1 was read as NPYLR7 ag -4 and NPYLR7 ag max-min -4.
For CSc1ccc(CN(C)C(=O)CCn2c(-c3ccc(C)cc3)n[nH]c2=S)cc1 the results were NPYLR7 ag 0 and NPYLR7 ag max-min 3.
For Cc1ccc(C(=O)NCc2ccc(S(=O)(=O)N(C)C)s2)cn1 the results were NPYLR7 ag 1 and NPYLR7 ag max-min -1.
For CCOCCn1c(=O)c2c(nc3n2CCCN3c2ccc(Oc3ccccc3)cc2)n(C)c1=O the results were NPYLR7 ag 10 and NPYLR7 ag max-min 9.

In the list so far, these contain fluorine.
O=[N+]([O-])c1ccccc1C1c2cccn2CCCN1Cc1cccc(C(F)(F)F)c1 (stereo not given) was read as NPYLR7 ag 4 and NPYLR7 ag max-min 19.
Screening Cc1ccn2c(=O)c(NC(=O)C(F)(F)F)c(C)nc2c1 returned NPYLR7 ag 4 and NPYLR7 ag max-min 3.
`CC1(C(=O)NS(=O)(=O)c2cccc(F)c2)CCN1C(=O)C1CCCCC1` (stereo not given) gave NPYLR7 ag 16 and NPYLR7 ag max-min 17.
For CCOC(=O)c1cnc2ccc(C(=O)OC)cc2c1Nc1cccc(C(F)(F)F)c1 the results were NPYLR7 ag 0 and NPYLR7 ag max-min -9.
O=C(Nc1nnc(-c2ccccc2)s1)c1cccc(C(F)(F)F)c1 was read as NPYLR7 ag -2 and NPYLR7 ag max-min -4.
Screening O=C(O)CONS(=O)(=O)c1ccc(F)cc1 returned NPYLR7 ag 5 and NPYLR7 ag max-min 3.
For Cc1ccc(-n2c(CNC(=O)c3ccc([N+](=O)[O-])cc3)nnc2SCc2ccc(F)cc2)cc1 the results were NPYLR7 ag -10 and NPYLR7 ag max-min -2.

Next part:
For NS(=O)(=O)c1cccc(S(=O)(=O)N2CCOC(c3ccc(F)cc3)C2)c1 (stereo not given) the results were NPYLR7 ag 0 and NPYLR7 ag max-min -1.
CCCOc1ccccc1[C@H]1N[C@](CO)(c2ccccc2)[C@H]2CN(C)C[C@@H]12 was read as NPYLR7 ag 5 and NPYLR7 ag max-min 2.
`Nc1ncc(C(=O)N2CCOC(c3ccc(F)cc3)C2)c(-c2ccccc2)n1` (stereo not given) gave NPYLR7 ag 13 and NPYLR7 ag max-min 11.
COCCCN(Cc1csc(COc2ccccc2C)n1)C(=O)c1cccc(OC)c1 was read as NPYLR7 ag 4 and NPYLR7 ag max-min 8.
Screening COc1cccc(C(CN2CCN(S(=O)(=O)c3ccc(C)c(F)c3)CC2)OCc2ccc(C#N)cc2)c1 (stereo not given) returned NPYLR7 ag -8 and NPYLR7 ag max-min -2.
Screening COc1nc(-c2ccc3c(c2)OCO3)n(-c2ccc(NC(=O)c3ccc([N+](=O)[O-])cc3)cc2)n1 returned NPYLR7 ag 3 and NPYLR7 ag max-min 11.
For CC(C)(C)C(=O)CNCC(=O)C(C)(C)C the results were NPYLR7 ag -1 and NPYLR7 ag max-min -2.
Cc1ccc(Cc2nsc(N3CCCNCC3)n2)cc1 was read as NPYLR7 ag 11 and NPYLR7 ag max-min 10.
CCOc1ccc2[nH]c(=O)c(CN3CCNC(CC)C3)cc2c1 (stereo not given) was read as NPYLR7 ag 1 and NPYLR7 ag max-min 0.
For CCN1C(=O)c2cc(NS(=O)(=O)C3CCCCC3)ccc2Oc2ccccc21 the results were NPYLR7 ag 5 and NPYLR7 ag max-min 5.
Screening O=P(O)(O)C(Nc1ccc2c(c1)OCCO2)c1ccc(Cl)cc1 (stereo not given) returned NPYLR7 ag 20 and NPYLR7 ag max-min 20.
Screening CC(=O)N1CCN(C(N)=O)CC1 returned NPYLR7 ag 1 and NPYLR7 ag max-min 1.
c1cc2cc(CN3CCC4(CCOCC4)CC3)ccc2[nH]1 was read as NPYLR7 ag 8 and NPYLR7 ag max-min 7.
Screening O=C(NCCn1nc(-c2ccc(F)cc2)ccc1=O)c1ccc(F)cc1 returned NPYLR7 ag -6 and NPYLR7 ag max-min -5.
Screening Cc1cccc(N(CC(=O)NCCCc2cccnc2)S(C)(=O)=O)c1 returned NPYLR7 ag 3 and NPYLR7 ag max-min 2.

Sorted by number of heavy atoms (rising): 3 of the compounds above
Screening O=P(O)(O)C(Nc1ccc2c(c1)OCCO2)c1ccc(Cl)cc1 (stereo not given) returned NPYLR7 ag 20 and NPYLR7 ag max-min 20.
For CCOC(=O)c1cnc2ccc(C(=O)OC)cc2c1Nc1cccc(C(F)(F)F)c1 the results were NPYLR7 ag 0 and NPYLR7 ag max-min -9.
For Cc1ccc(-n2c(CNC(=O)c3ccc([N+](=O)[O-])cc3)nnc2SCc2ccc(F)cc2)cc1 the results were NPYLR7 ag -10 and NPYLR7 ag max-min -2.

(cont.)
`Cc1ccc(S(=O)(=O)N2CCC(CCc3ccc4c(c3)OCO4)CC2)cc1` gave NPYLR7 ag 5 and NPYLR7 ag max-min 4.
`O=C(c1ccc(F)c(F)c1)N(Cc1nc2cc(Cl)ccc2o1)C1CC1` gave NPYLR7 ag 2 and NPYLR7 ag max-min -2.
For COCCN(CC(=O)N1CCc2sccc2C1c1ccccc1)C(=O)c1cccc([N+](=O)[O-])c1 (stereo not given) the results were NPYLR7 ag 8 and NPYLR7 ag max-min 1.
Screening COc1ccc(-c2nc(SCc3nc(C)c(C)o3)n[nH]2)cc1 returned NPYLR7 ag 6 and NPYLR7 ag max-min 1.
Screening Cc1c(C(=O)OCC(=O)NC(N)=O)oc2ccccc12 returned NPYLR7 ag -1 and NPYLR7 ag max-min 27.
For Cc1cc(C)c(S(=O)(=O)Nc2ccc(F)c(S(=O)(=O)N3CCOCC3)c2)c(C)c1 the results were NPYLR7 ag 0 and NPYLR7 ag max-min 0.
For CCN1CCN(c2ncnc(N(CC)CC)c2N)CC1 the results were NPYLR7 ag 10 and NPYLR7 ag max-min 8.
For Cc1ccc2oc(C(=O)NC(CCn3cncn3)c3ccccc3)c(C)c2c1 (stereo not given) the results were NPYLR7 ag -2 and NPYLR7 ag max-min -5.
For CCCN1CCc2nc(-c3ccccc3)n(CC(=O)Nc3cc(C)ccc3OC)c(=O)c2C1 the results were NPYLR7 ag 0 and NPYLR7 ag max-min 0.
Screening COc1ccc(NC(=O)N2CCN(Cc3ccc(C#N)cc3)CC2)cc1F returned NPYLR7 ag 3 and NPYLR7 ag max-min 2.
Screening Cc1sc2nc(CSc3nnc4ccccn34)[nH]c(=O)c2c1C returned NPYLR7 ag -2 and NPYLR7 ag max-min -3.
Screening CCCOc1ccc(C2C(C(=O)OC(C)C)=C(C)NC3=C2C(=O)CCC3)cc1OC (stereo not given) returned NPYLR7 ag -4 and NPYLR7 ag max-min -7.
`CCOC(=O)N1CCC(NC(=O)C2CC23CCN(C(=O)CCc2ccc(C)cc2)CC3)CC1` (stereo not given) gave NPYLR7 ag 25 and NPYLR7 ag max-min 15.
Screening Cc1ccc(C(C2Sc3nc(C)nn3C2=O)N2CC(C)OC(C)C2)cc1 (stereo not given) returned NPYLR7 ag 0 and NPYLR7 ag max-min -1.
CC(=O)OC(C(=O)N1CCC(c2nc(-c3ccc(F)c(F)c3)no2)CC1)c1ccccc1 (stereo not given) was read as NPYLR7 ag -4 and NPYLR7 ag max-min -7.
Screening Cc1oc(-c2ccc(C(F)(F)F)cc2)nc1CN1CCC(c2nc3ccccc3[nH]2)CC1 returned NPYLR7 ag 7 and NPYLR7 ag max-min -8.
For CCN(CC)C(=O)c1c(C)nc2ccccc2c1-c1ccccc1 the results were NPYLR7 ag 5 and NPYLR7 ag max-min 2.
O=C(c1cc(=O)c2ccccc2o1)N1CCN(c2nccn2-c2cccc(Cl)c2)CC1 was read as NPYLR7 ag 4 and NPYLR7 ag max-min 8.
Screening O=C(CCS(=O)(=O)c1ccc(Cl)cc1)N(Cc1ccccn1)c1nc2ccccc2s1 returned NPYLR7 ag -4 and NPYLR7 ag max-min -9.
For C=C1c2ccccc2C(=O)N1C(C)C(=O)Nc1ccc(Cl)c(Cl)c1 (stereo not given) the results were NPYLR7 ag 2 and NPYLR7 ag max-min 2.
O=C(O)C1CC2(CCNCC2)CN1C(=O)CCCc1cn[nH]c1 (stereo not given) was read as NPYLR7 ag 16 and NPYLR7 ag max-min 12.
CCc1ccc(-c2ccc(C(=O)Nc3cc(C(N)=O)sc3C)o2)cc1 was read as NPYLR7 ag 1 and NPYLR7 ag max-min 78.
`C=CCNC(=S)NC(=O)c1ccco1` gave NPYLR7 ag 8 and NPYLR7 ag max-min 3.
COCC(=O)Nc1cc(C(=O)N(C)Cc2cc3ccccc3s2)c2c(c1)nc(C1CCC1)n2C was read as NPYLR7 ag 1 and NPYLR7 ag max-min 0.
`COc1ccc(N2CCN(C(=O)c3ccccc3N3CCC(NC(=O)Cc4ccccc4)CC3)CC2)cc1` gave NPYLR7 ag -2 and NPYLR7 ag max-min -4.
COc1ccc(NC(=O)C2CCN(C(=O)CCNC(=O)C34CC5CC(CC(C5)C3)C4)CC2)cc1 was read as NPYLR7 ag 6 and NPYLR7 ag max-min 16.
For CC1C2CC3(C)CC1(C)CC(C1(C)CC(=O)O1)(C2)C3 (stereo not given) the results were NPYLR7 ag 0 and NPYLR7 ag max-min -3.
Screening CCN(CC)CCNc1ncnc2sc3c(c12)CC(C)(C)OC3 returned NPYLR7 ag 0 and NPYLR7 ag max-min -1.
Cc1cccc(N2CCN(Cc3nncn3C)CC2)c1C was read as NPYLR7 ag 7 and NPYLR7 ag max-min 7.
O=C(c1cccc2ccnn12)N(CC#Cc1ccccc1)C1CC1 was read as NPYLR7 ag 4 and NPYLR7 ag max-min 3.
`COC(=O)CC(C)NC(=O)Nc1cccc(OCC(F)(F)F)c1C` (stereo not given) gave NPYLR7 ag 2 and NPYLR7 ag max-min 0.
`Cc1ccsc1[C@@H]1CCN(C(=O)c2cc(=O)[nH]c3ccc(F)cc23)C[C@H]1O` gave NPYLR7 ag 15 and NPYLR7 ag max-min 0.
Screening Cc1cc(C=O)c(C)n1NC(=O)c1ccccc1 returned NPYLR7 ag 1 and NPYLR7 ag max-min 3.
COc1cccc(N=c2scc(C)n2Cc2cccnc2)c1 was read as NPYLR7 ag 11 and NPYLR7 ag max-min 9.
